# Abs 340nm = compound light absorbance at 340 nm, profiling panel, artefact control, biochemical, MLSMR library, data from PS, PMK, MK assays; compound absorbance at 340 nm, fold over control; 65,000 tested, under 10 active; fold change at 10 µM;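 active = at 10 µM dose, initial 340 nm absorbance at least 2 fold that of control wells; inactive = change under 2 fold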;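 note: initial absorbance extrapolated from kinetic A340 decline of NADH oxidation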
# 5-HT1A blocker = human 5-HT1a receptor antagonists, primary screen, cell-based, CHO, Ga15 NFAT-bla reporter; AID 612, 2007; inhibition, % at 10 µM; CHO 5-HT1a Ga15 NFAT-bla reporter, antagonist mode; 5-hydroxytryptamine receptor 1A (Homo sapiens), P08908; 62,000 compounds, 0.68% hits;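 active = inhibition above the mean of all tested compounds plus 3 SD, cut at about 43% in these data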;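 note: receptor stimulated by 5-CT agonist at 100 nM near EC80; beta-lactamase reporter measured by ratiometric fluorescence of a cleavable substrate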
# Target sequence (P08908 whole entry, looked up): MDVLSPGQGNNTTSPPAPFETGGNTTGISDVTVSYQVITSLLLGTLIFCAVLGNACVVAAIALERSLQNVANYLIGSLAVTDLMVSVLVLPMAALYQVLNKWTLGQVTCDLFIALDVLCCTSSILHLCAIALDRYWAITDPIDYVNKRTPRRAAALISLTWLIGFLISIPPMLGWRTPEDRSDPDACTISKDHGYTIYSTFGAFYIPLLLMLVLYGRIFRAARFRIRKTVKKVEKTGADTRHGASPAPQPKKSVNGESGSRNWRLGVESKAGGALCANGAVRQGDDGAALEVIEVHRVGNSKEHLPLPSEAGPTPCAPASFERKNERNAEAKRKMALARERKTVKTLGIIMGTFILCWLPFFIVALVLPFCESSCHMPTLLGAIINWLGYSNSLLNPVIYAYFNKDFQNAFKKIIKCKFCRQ
# MMP-13 inhibitor = human MMP13 inhibitors, primary screen, biochemical, FRET peptide cleavage; 65,000 compounds, 0.07% hits; MMP-13 fTHP FRET cleavage, Mca fluorescence; Collagenase 3 (Homo sapiens), P45452; inhibition, % at 4 µM;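 active = inhibition above the mean of compound-free control plate wells plus 3 SD, cut at about 14% in these data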;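 note: 0% = DMSO wells and 100% = wells with reference MMP-13 inhibitor after basal subtraction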
# TNAP act mid DEA = human TNAP enzyme activators, primary screen, biochemical, luminescent, intermediate phosphate acceptor level; AID 813, 2007; 64,000 tested, under 10 active; purified TNAP, CDP-star luminescence, 100 mM DEA, 30 min; active compounds read high; scale: 0 levamisole-inhibited, 1 vehicle-only enzyme; activation factor at 20 µM;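 active = activation factor of at least 2 at 20 µM, relative to controls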
# SF-1 act = activators of human SF-1, primary screen, cell-based, CHO-K1, Gal4-SF-1 LBD, luciferase luminescence; 65,000 compounds, 1.9% hits; activation, % at 10 µM; Steroidogenic factor 1 (Homo sapiens), Q13285; CHO-K1 Gal4-SF-1 LBD luciferase reporter; % increase over DMSO SF-1-specific signal; AID 522, 2006;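 active = activation above the mean activation of all tested compounds plus 3 SD, cut at about 50% in these data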
#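 Material: Transient Gal4-SF-1 LBD reporter, CHO-K1 | Input: 4,000 cells/well | Dosing: One dose, 10 µM compound, 1% DMSO | Incubation: 20 h compound treatment, 37 °C | Detection: SteadyLite luciferase luminescence | Evaluation: Percent activation relative to DMSO median and mock-transfected background | Benchmarks: DMSO-treated SF-1-transfected cells as negative, DMSO-treated mock-transfected cells lacking SF-1 as background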
# * marks the source's active call; other numbers are inactive results; . = not tested or not shown; & = joins results of further samples; [ ] = remark or other dose.
SMILES,Abs 340nm,5-HT1A blocker,MMP-13 inhibitor,TNAP act mid DEA,SF-1 act
CC(=O)Oc1ccc(C(c2ccc(OC(C)=O)cc2)c2ccccn2)cc1,0.97,.,-6.1,0.9,-18.8
COc1cccc(C2C=C(c3ccc(OC)cc3OC)Nc3nnnn32)c1 (stereo not given),1.07,7.8,-24.6,0.9,-6.1
CC(C)OC(=O)C(C)(C)Oc1ccc(C(=O)c2ccc(Cl)cc2)cc1,1.01,.,-6.2,0.9,-23.0
CSc1ccc2c(c1)N(CCC1CCCCN1C)c1ccccc1S2 (stereo not given),1,.,-1.0,0.9,-9.3
NCc1ccc(S(N)(=O)=O)cc1,0.97,.,7.1,0.9,11.2
CCS(=O)(=O)CCn1c([N+](=O)[O-])cnc1C,1,.,-0.6,0.8,-3.9
CC(=O)Nc1c(I)c(NC(C)=O)c(I)c(C(=O)O)c1I,0.97&1.02,.,3.6,0.9,-9.5
CN(C)c1nc(N(C)C)nc(N(C)C)n1,1,.,6.7,1,-10.5
CNCCCC12CCC(c3ccccc31)c1ccccc12,0.99,.,-8.3,0.9,16.0
O=c1n(CCCN2CCN(c3cccc(Cl)c3)CC2)nc2ccccn12,0.98,.,-43.5,0.9,-6.4
CCNC(=O)CC1C(=O)N(c2ccc(F)cc2)C(=O)N1Cc1ccc(OC)cc1 (stereo not given),0.96,2.3,-1.4,1,5.8
COC1=CC(=O)CC(C)C12Oc1c(Cl)c(OC)cc(OC)c1C2=O (stereo not given),1.01,.,-31.2,0.9,4.4
C(=N\n1cncn1)/c1ccc(N2CCOCC2)cc1,1.23,11.6,3.0,0.9,3.3
COc1ccc(CCN2CCC(Nc3nc4ccccc4n3Cc3ccc(F)cc3)CC2)cc1,0.97,.,-4.1,1,-3.8
COc1ccc(Cl)cc1C(=O)NCCc1ccc(S(=O)(=O)NC(=O)NC2CCCCC2)cc1,0.97,.,6.5,0.9,0.6
CN(C)CCCN1c2ccccc2CCc2ccc(Cl)cc21,0.98,.,-4.4,0.9,-2.0
Nc1nc2n(n1)C(c1ccco1)CC(c1ccc(Cl)c(Cl)c1)N2 (stereo not given),1.02,29.1,-62.0[fluorescence artefact?],1,12.0
CN(C)CCCN1c2ccccc2Sc2ccc(Cl)cc21,0.99,.,4.2,0.9,7.3

# Given tab-delimited: entries from further up.
mol	Abs 340nm	5-HT1A blocker	MMP-13 inhibitor	TNAP act mid DEA	SF-1 act
CC(=O)Oc1ccc(C(c2ccc(OC(C)=O)cc2)c2ccccn2)cc1	0.97	.	-6.1	0.9	-18.8
COc1cccc(C2C=C(c3ccc(OC)cc3OC)Nc3nnnn32)c1 (stereo not given)	1.07	7.8	-24.6	0.9	-6.1
CC(C)OC(=O)C(C)(C)Oc1ccc(C(=O)c2ccc(Cl)cc2)cc1	1.01	.	-6.2	0.9	-23.0
CSc1ccc2c(c1)N(CCC1CCCCN1C)c1ccccc1S2 (stereo not given)	1	.	-1.0	0.9	-9.3
NCc1ccc(S(N)(=O)=O)cc1	0.97	.	7.1	0.9	11.2
CCS(=O)(=O)CCn1c([N+](=O)[O-])cnc1C	1	.	-0.6	0.8	-3.9
CC(=O)Nc1c(I)c(NC(C)=O)c(I)c(C(=O)O)c1I	0.97&1.02	.	3.6	0.9	-9.5
CN(C)c1nc(N(C)C)nc(N(C)C)n1	1	.	6.7	1	-10.5
CNCCCC12CCC(c3ccccc31)c1ccccc12	0.99	.	-8.3	0.9	16.0
O=c1n(CCCN2CCN(c3cccc(Cl)c3)CC2)nc2ccccn12	0.98	.	-43.5	0.9	-6.4
CCNC(=O)CC1C(=O)N(c2ccc(F)cc2)C(=O)N1Cc1ccc(OC)cc1 (stereo not given)	0.96	2.3	-1.4	1	5.8
COC1=CC(=O)CC(C)C12Oc1c(Cl)c(OC)cc(OC)c1C2=O (stereo not given)	1.01	.	-31.2	0.9	4.4

# Screens as filed in PubChem BioAssay.

# These rows are one share of the data; the hit share may differ from the screen's.
